# HIV Env fusion = blocks HIV Env-driven cell-cell fusion. HeLa-JRFL Env/CEM21 cell fusion, luciferase. 360,000 compounds, 1.1% hits. AID 651610. inhibition, % at 12.3 µM;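 active = mean replicate inhibition score of at least 50 and every replicate individually at or above 50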;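 also: 0% = plate neutral controls and 100% = maraviroc near 300 nM; one replicate is shown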
# * hit, by the source's call; [ ] = dose if it differs, or a comment.
SMILES,HIV Env fusion
O=C(C[C@H]1CC[C@H]2[C@@H](COC[C@H](O)CN2Cc2cc(F)ccc2F)O1)NCc1ccc(Cl)cc1,21.3[16.7 µM]
CC(C)(C)C(C(=O)NCc1ccccc1)N1CCN(CCN2CCOCC2)CC1 (stereo unspecified),16.8
C[C@H](CO)N1C[C@H](C)[C@@H](CN(C)Cc2ccc(C(=O)O)cc2)Oc2ccc(NC(=O)Cn3cnnn3)cc2CC1=O,7.9[16.7 µM]
COC(=O)C[C@@H]1CC[C@@H]2[C@H](COC[C@@H](O)CN2CCC(F)(F)F)O1,16.4[16.7 µM]
CO[C@H]1CN(C)C(=O)c2cc(NS(C)(=O)=O)ccc2OC[C@H](C)N(C(=O)C2CCOCC2)C[C@H]1C,-9.5[16.7 µM]
COC(=O)[C@@H]1[C@@H](CO)[C@@H]2Cn3c(ccc(C4=CCCC4)c3=O)[C@@H]2N1C(=O)Cc1cccnc1,3.2[16.7 µM]
CO[C@H]1CN(C)C(=O)c2cc(NC(=O)NC(C)C)ccc2OC[C@@H](C)NC[C@H]1C,8.7[16.7 µM]
CC(C)NC(=O)Nc1ccc2c(c1)C(=O)N([C@H](C)CO)C[C@H](C)[C@@H](CN(C)C(=O)Nc1ccccc1)OCCCC[C@H](C)O2,-32.0[16.7 µM]
COc1ccc(NC(=O)N(C)C[C@@H]2Oc3ccc(N(C)C)cc3CC(=O)N([C@H](C)CO)C[C@@H]2C)cc1,2.8[16.7 µM]
C[C@@H]1CCCCO[C@H](CN(C)Cc2ccncc2)[C@@H](C)CN([C@H](C)CO)C(=O)c2cc(NC(=O)c3ccncc3)ccc2O1,14.6[16.7 µM]
CC(C)c1[nH]nc2c1C(c1ccccc1)N(c1ccccc1)C2=O (stereo unspecified),-9.9
COc1ccc2c3c([nH]c2c1)[C@@H](CO)N(C(=O)c1ccccc1)CC31CN(C(=O)Nc2cccc(F)c2)C1,5.2[16.7 µM]
C[C@H]1CN([C@@H](C)CO)C(=O)c2cc(C3=CCCCC3)cnc2O[C@@H]1CN(C)C(=O)Cc1ccncc1,-4.8[16.7 µM]
O=C(N[C@H](Cc1ccccc1)C(=O)NCCCN1CCCC1=O)[C@H]1O[C@@H](n2ccc(=O)[nH]c2=O)[C@H](O)[C@@H]1O,-5.1
CO[C@@H]1CN(C)C(=O)c2cc(NC(=O)c3cc(C)on3)ccc2OC[C@H](C)NC[C@@H]1C,16.7[16.7 µM]
O=C1CSC(c2cccs2)N1c1nncs1 (stereo unspecified),14.4
C[C@H]1CN([C@@H](C)CO)S(=O)(=O)c2ccc(C#CC3CCCC3)cc2O[C@@H]1CN(C)C(=O)c1cccc(F)c1,33.9[16.7 µM]
Cc1cc(C(=O)Nc2ccc3c(c2)C(=O)N(C)[C@H]2CC[C@H](CC(=O)NCC(F)(F)F)O[C@@H]2CO3)no1,12.5[16.7 µM]
C[C@H]1CN([C@@H](C)CO)C(=O)Cc2cc(NC(=O)Nc3ccc4c(c3)OCO4)ccc2O[C@@H]1CN(C)S(=O)(=O)c1ccccc1,10.4[16.7 µM]
C[C@@H]1CCCCO[C@H](CN(C)C)[C@@H](C)CN([C@H](C)CO)C(=O)c2cc(NC(=O)Cc3ccccc3)ccc2O1,-1.7[16.7 µM]
COc1cccc(S(=O)(=O)N[C@@H]2CC[C@H](CCN)O[C@H]2CO)c1,65.6*[16.7 µM]
C[C@@H]1CN([C@H](C)CO)C(=O)c2cc(NS(C)(=O)=O)ccc2O[C@H]1CN(C)C(=O)Nc1cccc2ccccc12,9.0[16.7 µM]
CO[C@@H]1CC[C@H]2CCN(C)C(=O)C[C@@H](c3ccccc3)CN(C)C(=O)c3cc(C#N)ccc3OC[C@@H]1O2,28.0[16.7 µM]
C[C@H]1CN([C@@H](C)CO)C(=O)c2cc(C#CC(C)(C)O)cnc2O[C@H]1CN(C)Cc1cccc(F)c1,4.9[16.7 µM]
CC(C)[C@@H](C)/C=C/[C@@H](C)[C@H]1CC[C@@H]2[C@]1(C)CCC1[C@]23C=C[C@]2(C[C@@H](O)CC[C@]12C)N(c1ccc([N+](=O)[O-])cn1)O3 (stereo partly specified),-2.6
# Next part.
SMILES,HIV Env fusion
Nc1[nH]c(C(=O)c2ccc(Br)cc2)c(-c2ccncc2)c1C(=O)c1ccccc1,20.8
CC(C)NC(=O)N(C)C[C@H]1OCCCC[C@@H](C)Oc2ccc(NC(=O)CCC(F)(F)F)cc2C(=O)N([C@H](C)CO)C[C@@H]1C,2.8[16.7 µM]
CC(C)NC(=O)N(C)C[C@H]1OCCCC[C@@H](C)Oc2ccc(NC(=O)C3CCCCC3)cc2C(=O)N([C@H](C)CO)C[C@H]1C,1.0[16.7 µM]
COc1ccc(S(=O)(=O)Nc2ccc3c(c2)C(=O)N([C@@H](C)CO)C[C@@H](C)[C@H](CN(C)C)OCCCC[C@H](C)O3)cc1,0.0[16.7 µM]
COC(=O)C1=C(C)N(Cc2ccc(Br)cc2)C(=S)NC1c1cccc(Br)c1 (stereo unspecified),23.7
O=C(N[C@H]1CC[C@@H](CCNC(=O)c2cnccn2)O[C@@H]1CO)c1ccc2c(c1)OCO2,-14.5[16.7 µM]
CO[C@H]1CC[C@@H]2CCOc3c(C#N)cccc3C(=O)N(C)C[C@H](C)C(=O)N(C)C[C@@H]1O2,-5.5[16.7 µM]
COC(=O)C1=C(C)N(Cc2ccccc2C(F)(F)F)C(=NCc2ccc(OC)cc2)NC1c1ccc(F)cc1 (stereo unspecified),16.6
C[C@@H]1CN([C@H](C)CO)C(=O)CCCn2nncc2CO[C@@H]1CN(C)C,-20.6[16.7 µM]
C[C@@H]1CN([C@H](C)CO)C(=O)c2cc(C#CCc3ccccc3)cnc2O[C@@H]1CN(C)Cc1ccc(C(=O)O)cc1,-25.9[16.7 µM]
CO[C@H]1CC[C@@H]2CCOc3ccc(C#N)cc3C(=O)N(C)C[C@@H](C)C(=O)N(C)C[C@H]1O2,-4.7[16.7 µM]
COc1ccc(NC(=O)N[C@@H]2CC[C@H](CC(=O)NC3CCC3)O[C@H]2CO)cc1,0.7[16.7 µM]
C[C@@H]1CN([C@H](C)CO)C(=O)c2c(c3ccccc3n2C)-c2ccccc2CO[C@H]1CN(C)Cc1cccc(O)c1,21.7[16.7 µM]
CCNC(=O)N(C)[C@H]1C[C@H]2c3[nH]c4c(-c5ccc6c(c5)OCO6)cccc4c3CCN2C(=O)[C@H]1[C@H](C)O,-43.4
CCOC(=O)C1CSCCS(=O)(=O)N1Cc1cccc(Cl)c1 (stereo unspecified),-1.8
CC(C)NC(=O)Nc1ccc2c(c1)C(=O)N([C@H](C)CO)C[C@H](C)[C@H](CN(C)C)O2,2.3[16.7 µM]
CCCCOCC1CN(CCCC)S(=O)(=O)c2c(NCc3cc(OC)c(OC)c(OC)c3)cccc2O1 (stereo unspecified),33.4
CN1C(=O)c2cc(NC(=O)Cc3cccs3)ccc2OC[C@H]2O[C@H](CC(=O)N[C@H]3CCN(Cc4ccccc4)C3)CC[C@H]21,-3.9[16.7 µM]
O=C(NCCN1CCCC1)[C@@H]1[C@@H](CO)[C@@H]2Cn3c(cccc3=O)[C@H]1N2C(=O)c1ccccc1,13.5[16.7 µM]
CC(C)NC(=O)Nc1ccc2c(c1)C(=O)N([C@H](C)CO)C[C@@H](C)[C@H](CN(C)CC1CCCCC1)OCCCC[C@H](C)O2,1.1[16.7 µM]
COc1ccccc1CNC(=O)C[C@H]1C[C@@H]2c3cc(NC(=O)c4cccnc4)ccc3O[C@@H]2[C@H](CO)O1,-21.7[16.7 µM]
C[C@@H]1CCCCO[C@@H](CN(C)C(=O)CCCN(C)C)[C@H](C)CN([C@@H](C)CO)C(=O)c2cc(NC(=O)c3ccccc3)ccc2O1,-1.9[16.7 µM]
C[C@H](CO)N1C[C@H](C)[C@@H](CN(C)Cc2ccc3c(c2)OCO3)Oc2ccc(NC(=O)CCCN(C)C)cc2CC1=O,-4.8[16.7 µM]
O=C(N[C@@H]1CC[C@H](CCNS(=O)(=O)c2cccc(Cl)c2)O[C@H]1CO)c1ccccc1,7.6[16.7 µM]
COc1ccccc1C#Cc1cnc2c(c1)C(=O)N([C@@H](C)CO)C[C@H](C)[C@@H](CN(C)S(=O)(=O)c1cn(C)cn1)O2,40.5[16.7 µM]

# Quoted from the listing for reference:
SMILES,HIV Env fusion
Nc1[nH]c(C(=O)c2ccc(Br)cc2)c(-c2ccncc2)c1C(=O)c1ccccc1,20.8
CC(C)NC(=O)N(C)C[C@H]1OCCCC[C@@H](C)Oc2ccc(NC(=O)CCC(F)(F)F)cc2C(=O)N([C@H](C)CO)C[C@@H]1C,2.8[16.7 µM]
CC(C)NC(=O)N(C)C[C@H]1OCCCC[C@@H](C)Oc2ccc(NC(=O)C3CCCCC3)cc2C(=O)N([C@H](C)CO)C[C@H]1C,1.0[16.7 µM]
COc1ccc(S(=O)(=O)Nc2ccc3c(c2)C(=O)N([C@@H](C)CO)C[C@@H](C)[C@H](CN(C)C)OCCCC[C@H](C)O3)cc1,0.0[16.7 µM]
COC(=O)C1=C(C)N(Cc2ccc(Br)cc2)C(=S)NC1c1cccc(Br)c1 (stereo unspecified),23.7
O=C(N[C@H]1CC[C@@H](CCNC(=O)c2cnccn2)O[C@@H]1CO)c1ccc2c(c1)OCO2,-14.5[16.7 µM]
CO[C@H]1CC[C@@H]2CCOc3c(C#N)cccc3C(=O)N(C)C[C@H](C)C(=O)N(C)C[C@@H]1O2,-5.5[16.7 µM]

# Further entries:
SMILES,HIV Env fusion
COC(=O)[C@]12C[C@H](CC(=O)NCc3ccccc3)C(=O)N(Cc3ccccc3)C1=C[C@H](C1CCCC1)O[C@@H]2C,5.5
O=C(C[C@H]1CC[C@H](NC(=O)Cc2ccccn2)[C@H](CO)O1)NCCc1ccncc1,-12.6[16.7 µM]
CS(=O)(=O)Nc1ccc2c(c1)[C@H]1C[C@@H](CC(=O)NCc3cc(F)ccc3F)O[C@@H](CO)[C@H]1O2,1.1[16.7 µM]
CO[C@@H]1CN(C)C(=O)c2cc(NC(=O)c3cc(C)on3)ccc2OC[C@@H](C)NC[C@@H]1C,6.9[16.7 µM]
COc1cccc(CNC(=O)C[C@H]2CC[C@@H]3[C@H](COc4ccc(NC(=O)c5cccs5)cc4C(=O)N3C)O2)c1,0.7[16.7 µM]
C[C@@H](NC(=O)C[C@@H]1C[C@H]2c3cc(NC(=O)C4CCOCC4)ccc3O[C@H]2[C@@H](CO)O1)c1ccccc1,9.2[16.7 µM]
O=C(C[C@H]1C=C[C@@H](NC(=O)c2ccccc2)[C@H](CO)O1)NCc1ccc(Oc2ccccc2)cc1,35.2[16.7 µM]
COc1ccc(CN(C)C[C@H]2Oc3ccc(NC(=O)NC4CCCCC4)cc3CC(=O)N([C@@H](C)CO)C[C@@H]2C)cc1,0.1[16.7 µM]
C[C@@H]1CN([C@H](C)CO)C(=O)c2cccc(NC(=O)C3CCCCC3)c2O[C@@H]1CN(C)S(=O)(=O)c1cn(C)cn1,-7.5[16.7 µM]
CCCN1C[C@@H](C)[C@@H](OC)CN(C)C(=O)c2cc(NC(=O)Nc3ccccc3F)ccc2OC[C@@H]1C,-2.7[16.7 µM]
CC(C)NC(=O)N1[C@@H]2c3cccc(=O)n3C[C@@H]2[C@@H](CO)[C@@H]1C(=O)N1CCc2ccccc2C1,-0.3[16.7 µM]
C[C@@H]1CN([C@H](C)CO)C(=O)c2cc(NC(=O)Cc3ccccc3)ccc2O[C@H]1CN(C)C(=O)Nc1ccc(C(F)(F)F)cc1,-4.1[16.7 µM]
COC(=O)C[C@@H]1CC[C@@H]2[C@H](COc3ccc(NS(=O)(=O)c4ccccc4Cl)cc3C(=O)N2C)O1,-11.4[16.7 µM]
CO[C@@H]1CN(C)C(=O)c2ccc(NC(C)=O)cc2OC[C@H](C)N(C(=O)c2ccccc2)C[C@H]1C,-30.3[16.7 µM]
C[C@@H]1CN([C@@H](C)CO)C(=O)c2c(c3ccccc3n2C)-c2ccccc2CO[C@@H]1CN(C)S(=O)(=O)c1ccccc1C#N,-67.1[16.7 µM]
Cc1noc(C)c1NC(=O)N(C)C[C@H]1OCc2ccccc2-c2c(n(C)c3ccccc23)C(=O)N([C@H](C)CO)C[C@@H]1C,0.5[16.7 µM]
CN1CCN(C(=O)C[C@H]2CC[C@H]3[C@@H](COC[C@@H](O)CN3C(=O)Nc3ccc(F)cc3)O2)CC1,-11.3[16.7 µM]
CCCCCCCCN,-14.9
CN(C)CC(=O)Nc1ccc2c(c1)[C@@H]1C[C@H](CC(=O)N3CCc4ccccc4C3)O[C@@H](CO)[C@@H]1O2,-0.8[16.7 µM]
O=C(NC1CCCCC1)[C@@H]1N[C@@H]2c3ccc(-c4cccc(F)c4)c(=O)n3C[C@@H]2[C@H]1CO,-2.8[16.7 µM]
Cc1cccc(NC(=O)Nc2ccc3c(c2)C(=O)N(C)[C@@H]2CC[C@@H](CC(=O)NCc4ccccc4Cl)O[C@@H]2CO3)c1,12.6[16.7 µM]
CNC[C@H]1OCCCC[C@@H](C)Oc2ccc(NC(=O)NC(C)C)cc2C(=O)N([C@H](C)CO)C[C@H]1C,1.0[16.7 µM]
Cn1cnc([N+](=O)[O-])c1Sc1nnc(-c2ccccc2)c(-c2ccccc2)n1,11.0
C[C@H](CO)N1C[C@H](C)[C@@H](CN(C)S(=O)(=O)c2cccc(F)c2)OCc2ccccc2-c2c(n(C)c3ccccc23)C1=O,56.0*[16.7 µM]
O=C(Cc1ccncc1)NCC[C@H]1CC[C@H](NC(=O)C2CCC2)[C@@H](CO)O1,12.9[16.7 µM]
COc1ccccc1CCn1cnc(-c2ccc(F)cc2)c1CC(C)C,8.8
CC(C)CC1NC(=O)c2ccccc2-n2c1nc1ccc(Cl)cc1c2=O (stereo unspecified),-10.1
COc1ccccc1-c1ccc2n(c1=O)C[C@@H]1[C@@H](CO)[C@H](C(=O)NCC3CC3)N(S(C)(=O)=O)[C@H]21,6.7[16.7 µM]
O=C(N[C@H](C(=O)N1CCC[C@H]1C(=O)NC1CCCC1)c1ccccc1)C1CCCC1,11.5

# Source: PubChem (Broad Institute)

# Only part of the results is shown. The share of hits here may be higher or lower than overall.
